H5N1 CPE: MDCK cell protection from H5N1 avian flu; 96,000 tested, 0.07% active; cytopathic effect, luminescence, 72 h; stronger effect = higher value; no value below 0 was filed and about half of the inactive calls have no number; reference of the scale not given here; inhibition, % at 50 µM; AID 740; in the data active means inhibition above about 25%
Numbers without * were called inactive; i = inactive. This is a subset, so the mix of outcomes need not match the whole.

| SMILES | H5N1 CPE |
| --- | --- |
| COc1ccc2cc3cc(C(=O)Nc4cc(OC)c(OC)c(OC)c4)oc3nc2c1 | 0.2 |
| COC(=O)c1onc(-c2c(C)cc(C)cc2C)c1C(=O)OC | 0.6 |
| Cc1ccc(C2C3=C(CCCC3=O)Nc3nc(SCC(=O)NCc4ccco4)[nH]c(=O)c32)cc1 (stereo unspecified) | 0.5 |
| O=C(Nc1ccccc1C(=O)N1CCOCC1)C1CCC(=O)N1C1CCCC1 (stereo unspecified) | i |
| O=C(Nc1ccccc1C(F)(F)F)N1CCN(c2ccc3nnc(-c4ccc(F)cc4)n3n2)CC1 | i |
| CC(OC(=O)c1ccc2ccccc2n1)C(=O)Nc1ccc(N2CCOCC2)cc1 (stereo unspecified) | i |
| COc1cccc(-n2c(C)n[nH]c2=O)c1 | i |
| CCOC(=O)N1CCC(NC(=O)c2cc(C(=O)Nc3ccc(OC)c(OC)c3)ccc2CO)CC1 | i |
| O=C(NCCc1ccc(Cl)cc1)C1CCN(S(=O)(=O)N2CCCC2)CC1 | 0.2 |
| Oc1cccc(-c2nc3ccc4ccccc4c3c3c2CCC3)c1 | 3.8 |
| OC(COCC1COc2ccccc2O1)CN1CCN(c2ccccn2)CC1 (stereo unspecified) | i |
| O=C(Cn1ncc2c3ccccc3n(Cc3ccccc3)c2c1=O)N1CCC2(CC1)OCCO2 | 0.8 |
| CN1CCN(C(=O)CN(c2cc(C(F)(F)F)ccc2Cl)S(C)(=O)=O)CC1 | i |
| Cc1nn(Cc2c(Cl)cccc2Cl)c(C)c1NC(=O)/C=C/c1cnn(C)c1C | i |
| CN(C)c1ccc(CN(C(=O)COc2ccccc2)C2CCS(=O)(=O)C2)cc1 (stereo unspecified) | 0.4 |
| CC(C)CCn1c(Cl)nc2c1c(=O)n(C)c(=O)n2C | 0.9 |
| CCOC(=O)c1c(NC(=O)c2cccs2)sc2c1CCCC2 | i |
| Cc1ccc2cc(C#N)c(SCC(=O)Nc3ccc4sc(C)nc4c3)nc2c1 | i |
| CC(C)CCOP(=O)(c1ccc(N(C)C)cc1)C(O)c1ccccc1F (stereo unspecified) | 1.9 |
| c1coc(-c2nnc3sc(Cc4cccs4)nn23)c1 | 22.2 |
| Cc1ccc(-n2nnnc2-c2cnc3ccc(Cl)cc3c2-c2ccccc2)cc1 | 0.4 |
| COc1ccc(NC(C)=O)cc1NC(=O)CSc1nnc(-c2ccccc2)n1N | 0.4 |
| COc1ccc(C2NCc3ccc4c(c3-n3cccc32)OCO4)cc1OC (stereo unspecified) | i |
| CCCc1cc(=O)n2[nH]c(NCc3ccccc3Cl)nc2n1 | 0.1 |

Reprinted at random: 4 records from the list, in no set order.
| SMILES | H5N1 CPE |
| --- | --- |
| CC(C)CCn1c(Cl)nc2c1c(=O)n(C)c(=O)n2C | 0.9 |
| CCCc1cc(=O)n2[nH]c(NCc3ccccc3Cl)nc2n1 | 0.1 |
| c1coc(-c2nnc3sc(Cc4cccs4)nn23)c1 | 22.2 |
| COc1ccc(NC(C)=O)cc1NC(=O)CSc1nnc(-c2ccccc2)n1N | 0.4 |

Continuation.
| SMILES | H5N1 CPE |
| --- | --- |
| OC(COCc1cccs1)CN1CCN(c2ccccn2)CC1 (stereo unspecified) | i |
| COCCn1c(SCC(N)=O)nc2c(c1=O)SC(C)C2 (stereo unspecified) | 1.1 |
| Cc1cc(Nc2ccc(Br)c(C)c2)n2nc(C)nc2n1 | i |
| COc1ccc(C(=O)Nn2c(SCC(=O)c3ccccc3)nc3ccccc3c2=O)cc1 | i |
| CC(=O)Nc1ccc(OCC(O)CN2CCN(c3cc(Cl)ccc3C)CC2)cc1 (stereo unspecified) | i |
| CC(C)Oc1ccc(C(=O)NC2(C(F)(F)F)N=C3SCCN3C2=O)cc1 (stereo unspecified) | 0.3 |
| O=C(NC1(C(F)(F)F)N=C(c2ccccc2)NC1=O)c1ccc(Cl)cc1Cl (stereo unspecified) | 0.1 |
| CCCCCCCCNC(=O)C(CCC(=O)OCc1ccccc1)NC(C)=O (stereo unspecified) | i |
| CC(C)CC(C(=O)Nn1cnnc1)N1C(=O)c2ccccc2C1=O (stereo unspecified) | i |
| CCOC(=O)c1[nH]cnc1C(=O)Nc1ccncc1 | 0.8 |
| CCCC1(C)Nc2ccccc2-c2nc3ccccc3n21 (stereo unspecified) | 0.7 |
| CCOC(=O)C1CCCN(C(=O)COC(=O)c2cc(=O)c3ccccc3o2)C1 (stereo unspecified) | i |
| Oc1ccccc1-c1nnc(SCCN2CCOCC2)n1Cc1ccccc1 | 0.2 |
| COc1cc2cc(C(=O)Nc3ccccc3)c(N)nc2cc1OC | 1.0 |
| CC(C)c1nnc(NC(=O)CCC(=O)Nc2ccc(F)cc2)s1 | i |
| COC(=O)c1ccc(COc2ccc3c(C)c(C)c(=O)oc3c2)o1 | 2.1 |
| COC(=O)Nc1nc(C)c(C(=O)c2ccccc2)s1 | i |
| CC1=C([N+](=O)[O-])C(c2ccccc2)C2=C(N1)c1ccccc1C2=O (stereo unspecified) | i |
| CCS(=O)(=O)N1CCN(c2nc(-c3ccccc3)cs2)CC1 | i |
| c1ccc(Cc2nnc3sc(-c4ccccn4)nn23)cc1 | i |
| CC(=O)C(Cc1cnc(Cl)s1)(Cc1cnc(Cl)s1)C(C)=O | 0.2 |
| CC(=O)CC1(O)C(=O)N(Cc2ccccc2)c2ccccc21 (stereo unspecified) | i |
| CCC(=NC1CC1)c1c(O)n(-c2ccc(OC)cc2)c(=O)[nH]c1=O | 1.0 |
| CC1CCN(C(=O)CSc2nncn2C)CC1 | i |
| Cc1ccc(Cl)cc1N1CCN(C(=O)COc2ccc(S(=O)(=O)NC(C)C)cc2)CC1 | i |
| CCN1C(=O)c2ccc(C(=O)NCc3ccccc3)cc2C1=O | 0.3 |
| COc1ccc(C(C(=O)NC2CCCC2)N(C(=O)c2snc(-c3ccc(F)cc3)c2N)c2ccc(OC)cc2)cc1 (stereo unspecified) | i |
| CCCc1cc(C(=O)NC2CCCCC2)no1 | 1.3 |
| CC(=O)NC1CC2CCCC(C1)N2C(=O)Nc1ccc(Cl)c(C(F)(F)F)c1 (stereo unspecified) | i |
| Cc1nc(Nc2ccc3c(c2)OCO3)c2oc3ccccc3c2n1 | i |
| CCN(C(=O)c1coc(=O)c(Br)c1)c1ccc2c(c1)OCO2 | 2.3 |
| O=C1CCC(C(=O)Nc2ccc(OC(F)F)cc2)N1 (stereo unspecified) | i |
| CCn1c(C(=O)N2CCc3ccccc3C2)cc2sccc21 | i |
| Cc1nc(NC(=O)CSc2nc3cccnc3n2C2CCCCC2)sc1C | i |
| Cc1cc(CN2CCN(CCC#N)CC2)c(O)c(C2(C)CCCCC2)c1 | i |
| Cc1csc(NC(=O)CCCSc2nc3ccccc3s2)n1 | i |
| CC(C)OCC(O)Cn1c(N2CCCC2)nc2c1c(=O)[nH]c(=O)n2C (stereo unspecified) | 1.5 |
| COc1ccc(-n2ncc(S(=O)(=O)c3ccccc3)c2-c2ccc(Cl)cc2)cc1 | i |
| Cc1cc(C(=O)N/N=C/c2cccc(Cl)c2Cl)no1 | i |
| CC(=O)N1N=C(c2ccc(Cl)cc2)OC1c1ccc(C(C)C)cc1 (stereo unspecified) | i |
| O=C(Cn1cnc2ccccc21)NC(c1ccccc1)c1ccccc1 | i |
| COc1ccccc1CNC(=O)CCC(=O)Nc1nnc(C(C)C)s1 | i |
| CCc1ccc2nc(N3CCN(C)CC3)c(C#N)cc2c1 | i |
| Cc1cccc(CSc2nnc(NC(=O)c3ccco3)s2)c1 | 0.6 |
| COc1cc(C)nc2nc(SCc3ccccc3)nn12 | i |
| CC(C)Sc1nc2ccccc2c(=O)[nH]1 | 0.6 |
| Cc1cc(NC(=O)c2cc3nc(C4CC4)cc(C(F)(F)F)n3n2)no1 | i |
| CC(C)OC(=O)CSc1n[nH]c(-c2cccnc2)n1 | 2.7 |
| COCCNC(=O)c1onc(CSc2ccc(C(C)C)cc2)c1C(=O)O | 0.2 |
| COCCNS(=O)(=O)c1ccc(C2CNC(=O)C2)cc1 (stereo unspecified) | 0.8 |
| CC(C)(C)n1nnc(CCc2nnn(C(C)(C)C)n2)n1 | 0.8 |
| CC(C)(C)OC(=O)N[C@@H](Cc1ccccc1)c1nnc(SCC(=O)O)o1 | 0.8 |
| CC(C)(C)N=Cc1cc(-c2ccccc2)sc1O | i |
| Cc1ccc(S(=O)(=O)N2CCN(C(=O)Cc3ccccc3)CC2)cc1 | 2.5 |
| O=C(c1cccn2c(=O)c3ccccc3nc12)N1CCN(c2ccccn2)CC1 | 1.3 |
| Cn1ccnc1P(=S)(c1nccn1C)N1CCOCC1 | 0.2 |
| Cc1ccc(N(C(=O)C2CCCC2)C2C=CS(=O)(=O)C2)cc1C (stereo unspecified) | 2.1 |
| CCOc1cc(-c2nn3cnnc3s2)cc(OCC)c1OCC | i |
| CCOC(=O)c1c(NC(=O)CSc2nnc(-c3ccco3)o2)sc(C(C)=O)c1C | 0.9 |
| CCN(CC)CCOc1cc2c(nn1)Oc1ccccc1N2C | i |

Some of these compounds in order of formula weight, descending:
| SMILES | H5N1 CPE |
| --- | --- |
| COc1ccc(C(=O)Nn2c(SCC(=O)c3ccccc3)nc3ccccc3c2=O)cc1 | i |
| CC(OC(=O)c1ccc2ccccc2n1)C(=O)Nc1ccc(N2CCOCC2)cc1 (stereo unspecified) | i |
| CC1=C([N+](=O)[O-])C(c2ccccc2)C2=C(N1)c1ccccc1C2=O (stereo unspecified) | i |
| Cn1ccnc1P(=S)(c1nccn1C)N1CCOCC1 | 0.2 |
| CC1CCN(C(=O)CSc2nncn2C)CC1 | i |

Next part:
| SMILES | H5N1 CPE |
| --- | --- |
| CCOc1cc(-c2nnc(-c3ccco3)o2)cc(OCC)c1OCC | 0.2 |
| O=C1C(=C2CCCCC2)SC(=S)N1Cc1ccco1 | 0.3 |
| Cc1ccc(-c2nc(CS(=O)CC(=O)NCCCN3CC(C)CC(C)C3)c(C)o2)cc1 (stereo unspecified) | 0.1 |
| Cc1ccc(-c2cc(-c3ccccc3Cl)c(C#N)c(N)n2)o1 | 0.7 |
| COC(=O)c1ccc(C)c(NC(=O)CN2C(=O)c3ccccc3S2(=O)=O)c1 | 0.0 |
| CC(=O)Nc1ccc(S(=O)(=O)n2cnc(C)c2)cc1 | i |
| Cc1cc(C)cc(N(CC(=O)O)S(=O)(=O)c2c(C)noc2C)c1 | 0.5 |
| O=C(Nc1ccc2c(c1)OCO2)C(c1ccccc1)N1CCC2(CC1)OCCO2 (stereo unspecified) | i |
| O=C(NCc1nc2ccccc2[nH]1)c1cc2ccccc2oc1=O | 0.1 |
| C=CCn1c(SCCOc2ccc(OC)cc2)nnc1C(C)NC(=O)Cc1ccc(OC)cc1 (stereo unspecified) | 0.0 |
| Cc1ccc(CN2C3=NC(=O)CN3c3ccccc32)cc1 | 2.2 |
| Cc1c(SCCO)c(=O)[nH]c2cc3c(cc12)OCO3 | 0.8 |
| Cn1cc(C(=O)C(F)(F)F)c2ccccc21 | i |
| Cn1cccc1C1Nc2ccccc2NC2=C1C(=O)CC(C)(C)C2 (stereo unspecified) | i |
| COCC(=O)n1nc(-c2ccccc2)nc1NCc1ccc(F)cc1 | i |
| Cc1ccc2nc(C3CCN(C(=O)NCc4ccccc4)CC3)[nH]c2c1 | 1.1 |
| CCOC(=O)CSc1nc2c(c(=O)n(Cc3ccccc3Cl)c(=O)n2C)n1C | i |
| COc1cccc(CNC(=O)C(CCSC)NS(=O)(=O)c2ccc3c(c2)oc(=O)n3C)c1 (stereo unspecified) | i |
| O=C(NC12CC3CC(CC(C3)C1)C2)N1CCN(c2nc(-c3ccccc3)cs2)CC1 | 7.0 |
| CCOC(=O)c1cn(CC(=O)Nc2ccc(CC)cc2)nn1 | 0.4 |
| CC(C)(C)OC(=O)N1CCC(C(=O)N2CCOCC2)CC1 | 1.0 |
| CC12CCC(C(=O)N3CCCCC3)(CC1=O)C2(C)C (stereo unspecified) | i |
| O=C(NCc1cccc(F)c1)C1CCN(S(=O)(=O)Cc2ccccc2)CC1 | 0.1 |
| COc1cc(/C=N/NC(N)=S)ccc1OC(=O)c1ccc(C)cc1 | i |
| O=C(Nc1sc2c(c1C(=O)O)CCCCC2)c1ccco1 | 0.5 |
| CCOC(=O)C1=C(C)C(c2ccc(OC)cc2OC)NC(=O)N1 (stereo unspecified) | i |
| COc1ccc(/C=N/N2C(=O)CSC2=S)cc1 | i |
| COc1ccc(OC)c(-n2nnnc2SCC(=O)Nc2ccc3c(c2)OCCO3)c1 | 0.1 |
| CN1C(=O)CCC1(O)c1ccccc1 (stereo unspecified) | i |
| CC(C)c1cc(NC(=O)C(C)(C)C)cc(C(C)C)c1O | 0.3 |
| CCOC(=O)Cc1csc(NS(=O)(=O)Cc2ccccc2)n1 | 0.1 |
| CC(=O)c1oc2ccccc2c1NC(=O)CCCN1C(=O)c2ccccc2C1=O | 1.0 |
| CNC(=S)NNC(=O)c1cccc(C(F)(F)F)c1 | i |
| Cc1ccc(-c2cc(NC(=O)CCl)n(-c3ccccc3)n2)cc1 | i |
| Cc1cccc(NCCNc2cccc(C)c2)c1 | i |
| Cc1nc(-c2ccccc2)cc(=O)[nH]1 | 1.4 |
| CC1CN(CC(=O)N2CCc3[nH]c4ccccc4c3C2)CC(C)O1 (stereo unspecified) | i |
| O=C(Oc1ccc(-c2nnco2)cc1)N(c1ccccc1)c1ccccc1 | i |
| COc1ccc(CCN=CC2=C(O)CC(C)(C)CC2=O)cc1 | i |
| Cc1ccc(-c2nnn(CC(=O)N(CC(=O)NC3CCCC3)c3cnc4ccccc4c3)n2)o1 | i |
| C/C(=C(\C#N)C(=O)NCCCN1CCOCC1)N(C)C | 0.7 |
| COCCSc1nnc(NC(=O)C(C)(C)C)s1 | 1.4 |
| CC(CO)(CO)N=Cc1c(O)n(-c2cccc3ccccc23)c(=O)[nH]c1=O | i |
| COc1ccc(-c2nc(C)ncc2N=Nc2ccccc2)cc1 | i |
| COc1ccccc1CCNCc1cc2c(cc1[N+](=O)[O-])OCO2 | i |
| Cc1c(Br)cc(C(=O)N2CCCC2)c(C)c1C | 1.7 |
| Cc1cc(C)cc(NC(=S)NCc2cccn2C)c1 | i |
| CS(=O)(=O)c1cccc(C(=O)Oc2ccccc2)c1 | 0.0 |
| O=C(c1cccc(Cl)c1Cl)N1CCN(c2ccccn2)CC1 | i |
| COCCn1nnnc1CN1CCC(NC(=O)c2ccc(Br)cc2)CC1 | i |

Source: PubChem BioAssay
